SARS PLpro yeast: inhibitors of SARS-CoV papain-like protease in yeast. S. cerevisiae expressing SARS-CoV PLpro, growth rescue; control for the full effect not named in the record. Potency, µM (highest dose often 32.9 µM), inactives show at the top dose activity, positive = growth rescue. 0.19% of 330,000 active; further: 0% is about no effect; nearly all actives have a fitted effect of over 55% in size; growth read by luminescence after 48 h
MARV entry inh: inhibitors of Marburg virus binding or cell entry | Marburg virus pseudotyped entry inhibition, cell reporter; control for the full effect not named in the record; about a third of the inactives were read at about 46 µM | Potency, µM (highest dose often 37.8 µM), without a hit: top-dose activity change, negative = inhibition, most hits filed as inhibitors | 1.8% of 300,000 active | AID 540276; active = well fitted inhibition curve with a large enough effect; inconclusive = small, poorly fitted or top-dose-only effect, or effect the other way; inactive = flat fitted curve, though single readings scatter; tested in HEK293 cells; about a fifth of its hits are not listed in these tables; further: on the % scale 0 is the no-effect control and ±100 the full control effect; luciferase read-out
Lassa entry inh: blocks Lassa virus binding to or entry into cells | Lassa virus pseudotype entry inhibition, cell reporter; control for the full effect not named in the record | Potency, µM (series often up to 37.9 µM), inactives show at the highest dose activity change, negative = inhibition, actives largely listed as inhibitors | 1.2% of 300,000 active; active means well fitted inhibition curve with a large enough effect; inconclusive means small, poorly fitted or top-dose-only effect, or effect the other way; inactive means flat fitted curve, though single readings scatter; tested in HEK293 cells; further: on the % scale 0 is the no-effect control and ±100 the full control effect; nearly all actives have a fitted effect of over 50% in size; luciferase read-out
NS1 function inh: blocks influenza NS1 protein function; S. cerevisiae slowed by influenza A NS1, growth recovery by OD600; Potency, µM (titrated, usually from 46.1 µM), inactives show top-dose activity, positive = more growth; 0.4% of 270,000 active; AID 2326; further: actives are rising curves; nearly all actives have a fitted effect of over 50% in size
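Compounds were scored for reversing the slow growth caused by influenza A NS1 in S. cerevisiae, measured by optical density at 600 nm. Assay medium contained 2% galactose at pH 6.0; NS1-free yeast of the same strain were the positive control.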
Cruzain inh noDet: blocks cruzain activity in detergent-free assay; P25779; AID 1476; 2.3% of 200,000 active; Potency, µM, without a hit: max response, negative = inhibition, most hits filed as inhibitors; purified cruzain, Z-FR-AMC fluorescence, no detergent; active means well fitted curve in the direction sought with a large enough effect; inconclusive means small, poorly fitted or top-dose-only effect, or another doubt; inactive means no such curve, though single readings can be large; an effect the other way counts as inactive or inconclusive;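 further: plate controls were enzyme without inhibitor for no effect and buffer without enzyme for full effect; nearly all actives have a fitted effect of over 40% in size; top concentration of the series not given in the record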
Target sequence (P25779 123-467 limits assumed): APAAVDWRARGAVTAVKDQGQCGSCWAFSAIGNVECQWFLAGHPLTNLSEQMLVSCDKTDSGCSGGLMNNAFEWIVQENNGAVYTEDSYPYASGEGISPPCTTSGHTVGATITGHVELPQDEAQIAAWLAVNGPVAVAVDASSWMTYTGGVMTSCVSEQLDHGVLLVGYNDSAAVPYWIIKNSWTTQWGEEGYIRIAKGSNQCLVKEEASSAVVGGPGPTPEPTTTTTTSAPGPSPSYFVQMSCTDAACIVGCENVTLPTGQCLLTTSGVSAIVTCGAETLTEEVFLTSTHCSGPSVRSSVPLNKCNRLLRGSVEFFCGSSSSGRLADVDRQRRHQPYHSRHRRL
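Detergent-free condition (0.00005% Triton X-100) in acetate buffer pH 5.5 with DTT. 1.5 nM enzyme and compound were pre-mixed 15 min, then 2 uM Z-FR-AMC substrate added; reaction progress from fluorescence change between first and third reads (60 s).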
Cruzain inh Det: cruzain (T. cruzi) inhibition with detergent | P25779 | purified cruzain, Z-FR-AMC fluorescence, 0.01% Triton | Potency, µM, inactives show max response, negative = inhibition, actives largely listed as inhibitors | 0.43% of 200,000 active | AID 1478; active means well fitted curve in the direction sought with a large enough effect; inconclusive means small, poorly fitted or top-dose-only effect, or another doubt; inactive means no such curve, though single readings can be large; an effect the other way counts as inactive or inconclusive;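 further: plate controls were neutral wells for no effect and buffer without enzyme for full effect; nearly all actives have a fitted effect of over 40% in size; top concentration of the series not given in the record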
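Detergent-containing arm of a paired screen for aggregation-based inhibition: 0.01% Triton X-100 present. Cruzain at 1.5 nM cleaved 2 uM Z-FR-AMC at pH 5.5 with 5 mM DTT; AMC fluorescence gain over 60 s measured activity.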
RE007 growth inh: less growth of the S. pombe RE007 Vpr strain. S. pombe RE007 Vpr strain, BacTiter-Glo ATP luminescence, 24 h; control for the full effect not named in the record. Potency, µM (titrated, usually from 92.2 µM), inactives show top-dose activity change, negative = less growth. 0.21% of 360,000 active; active = well fitted falling curve with a large enough effect; inconclusive = small, poorly fitted or top-dose-only effect; inactive = no such curve, though single readings can be large or run the other way;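 further: on the % scale 0 is the no-effect control and ±100 the full control effect; nearly all actives have a fitted effect of over 50% in size; the assay follows cell death caused by Vpr and the record does not say whether a fall means rescue or toxicity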
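Fission yeast RE007 carrying one integrated HIV-1 vpr copy, seeded at OD 0.01 in PMG+AL medium with 23 nL pinned compound. Grown 24 h at 30 degrees; viability read by BacTiter-Glo luminescence after 5 min.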
2A StopGo: lowers the luciferase signal of an FMDV 2A StopGo reporter; 1.2% of 410,000 active; human cells with a luciferase reporter of 2A StopGo recoding; control for the full effect not named in the record; Potency, µM (highest dose often 57.9 µM), inactives show at the highest dose signal change, negative = less light; active = well fitted falling curve with a large enough effect; inconclusive = small, poorly fitted or top-dose-only effect; inactive = no such curve, though single readings can be large or run the other way; tested in HEK293T cells; further: on the % scale 0 is the no-effect control and ±100 the full control effect; nearly all actives have a fitted effect of over 45% in size; luciferase light after 4 h
Starred values were filed as active, the others as inactive; ? = inconclusive; / = not tested or not shown; & = joins results of further samples; [ ] = remark or other dose. Unless noted, the call rests on the fitted dose curve; in most records, active means well fitted rising curve with a large enough effect; inconclusive means small, poorly fitted or top-dose-only effect; inactive means no such curve, though single readings can be large or run the other way. Potency means the concentration at half of the fitted maximal effect.

SMILES | SARS PLpro yeast | MARV entry inh | Lassa entry inh | NS1 function inh | Cruzain inh noDet | Cruzain inh Det | RE007 growth inh | 2A StopGo
CCNC(=O)Oc1ccc(-c2csnn2)cc1 | -5% | 7%[46.1 µM] | -1% | / | / | / | 21% | 32µM*
COc1ccc(-c2cn(Cc3ccc(C)cc3)nn2)cc1 | -3% | / | / | -20% | / | / | 2% | 51%[activator]
Clc1cccc(Cl)c1/C=C/c1nc2ccccc2[nH]1 | -48% | ? | ? | -66% | -4% | 6.5% | ? | -60%
CCCCCCn1c(SCC(=O)c2c(N)n(C)c(=O)n(C)c2=O)nc2ccccc21 | -3% | 5% | 6% | 4% | ? | -1.5% | 7% | -27%
CCc1ccc(CNCc2c(C(=O)O)c(C)n(Cc3c(F)cccc3Cl)c2C)cc1 | / | ? | ? | / | ? | -5.0% | / | -19%
COc1ccccc1CCC(=O)N1CCN(S(=O)(=O)c2cccc(F)c2)CC1 | 8% | 0% | -1% | / | / | / | -18% | -11%
C[C@H](NC(=O)Cc1cccc2ccccc12)C(=O)N1CCCN(C)CC1 | 2% | ? | 2% | / | / | / | -7% | -11%
CCOC(=O)C1CCCN(S(=O)(=O)CCNC(=O)c2cccc(OC)c2)C1 (stereo unspecified) | -1% | ? | ? | / | / | / | 97% | -14%
Cn1c(O)c(/C=C/C=Nc2ccccc2)c(=O)n(C)c1=O | 29% | 12% | -7% | 4% | 1% | -5.2% | 4% | -9%
CC(C)SCCCOc1ccc(C(C)(C)C)cc1 | -3% | 5% | 14% | 0% | 1% | 2.1% | 9% | 42%[activator]
C=CCN(CC=C)CCOc1ccccc1 | 0% | 16% | 12% | 6% | -5% | -2.5% | 9% | 5%
CCc1ccc(NC(=O)CSC2=Nc3ccccc3C3=NC(CCC(=O)NCc4ccco4)C(=O)N23)cc1 (stereo unspecified) | / | / | 8%[46.1 µM] | / | ? | -0.5% | / | -29%
O=C(COC(=O)c1ccc(S(=O)(=O)N2CCCC2)cc1)NCc1ccccc1 | 2% | 6% | 4% | -3% | -4% | 3.3% | 0% | -24%
Cc1ccc(NC(=O)CS(=O)CC(=O)NCCCN(C)c2ccccc2)cc1 (stereo unspecified) | -5% | 2% | 16%[14.3 µM] | -3% | 11% | -1.5% | 14% | 20%
O=C(Cc1cccs1)N1CCN(S(=O)(=O)c2ccc(F)cc2)CC1 | -2% | 12% | 23%[46.1 µM] | / | / | / | 7% | -4%
COc1ccccc1NC(=O)C1=C(C)Nc2c(C(=O)Nc3ccc(C)cc3)cnn2C1c1cccc(OC)c1OC (stereo unspecified) | / | / | -6%[46.1 µM] | / | 0% | -2.9% | / | -2%
O=C(OCc1nnc(-c2ccc([N+](=O)[O-])cc2)o1)C1CCN(C(=O)c2ccc(Cl)cc2)CC1 | 1% | -15% | 5%[46.1 µM] | / | / | / | -1% | -1%
O=C(CSc1nc(=O)n2ccccc2n1)N1CCN(c2ccccc2)CC1 | 1% | 18%[46.1 µM] | -2% | / | / | / | -17% | -20%
O=C(Nc1ccc2nc(SCC(=O)N3CCc4ccccc43)sc2c1)c1ccc(Cl)cc1 | / | 7%[46.1 µM] | ? | / | -19% | -2.4% | / | 6%
CCN(CC)C(=O)Cn1cc(SCC(=O)Nc2cc(C)on2)c2ccccc21 | 2% | ? | / | / | / | / | 2% | -16%

Shown in CSV form: entries from further up
SMILES,SARS PLpro yeast,MARV entry inh,Lassa entry inh,NS1 function inh,Cruzain inh noDet,Cruzain inh Det,RE007 growth inh,2A StopGo
O=C(CSc1nc(=O)n2ccccc2n1)N1CCN(c2ccccc2)CC1,1%,18%[46.1 µM],-2%,/,/,/,-17%,-20%
C=CCN(CC=C)CCOc1ccccc1,0%,16%,12%,6%,-5%,-2.5%,9%,5%

(more compounds)
SMILES | SARS PLpro yeast | MARV entry inh | Lassa entry inh | NS1 function inh | Cruzain inh noDet | Cruzain inh Det | RE007 growth inh | 2A StopGo
COc1ccccc1N1CCN(C(=O)CSc2ncnc3scc(-c4ccccc4)c23)CC1 | 12% | ? | 6.3µM* | 22% | 6% | 0.2% | -5% | ?
CC1CCN(C(=O)Cn2cc(SCC(=O)Nc3ccccc3)c3ccccc32)CC1 | / | / | 11%[46.1 µM] | / | -11% | -0.9% | / | -6%
O=C1N(CCCl)c2ccc(Br)cc2C12OCCO2 | -1% | -10% | -13% | -9% | / | / | -7% | -7%
COCCn1c(C)cc(/C=C(\C#N)C(=O)OC(C)C(=O)Nc2ccc(NC(C)=O)cc2)c1C (stereo unspecified) | -3% | ? | -15% | / | / | / | -10% | -7%
Cc1ccc(NC2=CC(=O)OC(C)C2)cc1 (stereo unspecified) | 30% | -1% | 22% | -9% | -5% | 5.2% | -20% | 6%
CC(=O)NC(c1cccc([N+](=O)[O-])c1)c1ccc2cccnc2c1O (stereo unspecified) | 1.1µM* | ? | ? | -24% | / | / | -4% | -26%
O=C(COC(=O)Cc1ccccc1)Nc1ccc(Cl)cn1 | -6% | -3%[46.1 µM] | 3% | / | / | / | 14% | -8%
CCCCc1nc2cc(C(=O)NC(C)c3cnn(C)c3)ccc2o1 (stereo unspecified) | 24% | / | / | 3% | / | / | -4% | 56%[activator]
CCOC(=O)Cn1cc(Cl)cc(C(=O)Nc2ccccc2)c1=O | 0% | 7%[46.1 µM] | 10%[46.1 µM] | -2% | / | / | -19% | 3%
Cc1ccc(NC(=O)C2CCCN(S(=O)(=O)c3ccc4c(c3)oc(=O)n4C)C2)nc1 (stereo unspecified) | 1% | / | / | -61% | -5% | -1.3% | 0% | -22%
CCCOc1ccc(C2C(C(=O)c3cc4ccccc4o3)=C(O)C(=O)N2c2cc(C)on2)cc1OC (stereo unspecified) | 1% | / | / | 8% | / | / | 2% | -13%
CCOC(=O)C1=C(C)NC(C)=C(C(=O)OCC)C1C(=O)OCC(=O)NCCc1ccccc1 | 1% | ? | ? | / | / | / | -6% | -15%
O=C(Cn1cnc2c(NCc3ccccc3)ncnc21)NCCN1CCOCC1 | 28% | 3% | / | / | / | / | 10% | -6%
CCCOc1ccc(CCN2CCC(=O)NC2=O)cc1C | -1% | 11% | 2% | 9% | 2% | -2.7% | 6% | -6%
CCC(C)C1NC(=S)N(C2CCCCC2)C1=O (stereo unspecified) | -11% | 22% | 7% | -21% | -4% | -2.3% | -15% | -9%
CC(=O)c1cccc(N=C2NC(=O)C(CO)(CO)S2)c1 | ? | 1%&1% | 3% | -4% | -7% | 4.8% | 12% | -15%
Cc1csc2nc(-c3cccc(NC(=O)C(C)C)c3)cn12 | / | / | 5%[46.1 µM] | / | -13% | 0.2% | / | -5%
CCOc1ccc(N(CC(=O)Nc2ccccc2C(=O)N2CCCC2)S(C)(=O)=O)cc1 | 3% | -32%[46.1 µM] | -3% | 10% | / | / | -8% | -4%
Cc1ccc(NC(=O)CCCN2C(=S)NC(C)(C)CC2C)cc1 (stereo unspecified) | -3% | -2% | 2% | / | / | / | 2% | -13%
COc1ccc2cnn(CCOc3cc(C)ccc3C(C)C)c(=O)c2c1OC | 15% | ? | ? | -18% | ? | -8.7% | 9% | -16%
O=C(CSc1nnc(SCc2ccc(Cl)cc2)s1)N/N=C/c1c(Cl)cccc1Cl | -6% | ? | 3% | 12% | ? | -2.2% | 3% | 22%
COc1ccccc1CNC(=O)Cn1ncc2c(=O)oc3ccc(C)cc3c21 | / | 1%[46.1 µM] | 8%[46.1 µM] | / | 3% | 0.5% | / | -16%
CCN(CC(=O)Nc1c(F)cccc1F)C(=O)CCNC(=O)c1ccccc1OC | -1% | -17% | 0% | / | / | / | 27% | -5%
COC(=O)c1sccc1-c1ccc(C(=O)Nc2ccccc2)o1 | -11% | 6% | 3% | -75% | -9% | -6.4% | ? | -1%
CCCCN1Cc2c(nc3cc(-c4ccco4)[nH]n3c2=O)C1=O | 0% | ? | -1%[46.1 µM] | 14% | / | / | -9% | 13%
Cc1c(NC(=O)c2cc(-n3cnnc3)ccc2Cl)cccc1-c1nc2ccccc2s1 | 1% | ? | 1% | 5% | -3% | 2.8% | -15% | 14%
CN(Cc1ccco1)S(=O)(=O)c1nnc(NC(=O)c2ccccc2Cl)s1 | 2% | / | 23%[46.1 µM] | 8% | 17% | -4.6% | -1% | 33%&31%[activator]
O=C(Nc1cnc(N2CCC(N3CCCCC3)CC2)c(C(=O)O)c1)c1ccc(Br)cc1 | / | / | 2%[46.1 µM] | / | -10% | -2.7% | / | -13%
COc1ccc(CN2C(=O)NC3(CCOc4ccccc43)C2=O)cc1F (stereo unspecified) | ? | 7% | 2% | -16% | 5% | 2.2% | 0% | 0%
O=C(COc1cc(O)c2c(=O)cc(-c3ccccc3)oc2c1)c1ccccc1 | -13% | 5% | -3% | 16% | ? | -1.7% | 2% | -14%
COc1ccc(N2CCN(C(=O)CSc3ncnc4scc(-c5ccc(C)cc5)c34)CC2)cc1 | / | ? | ? | / | / | / | 22% | 0%
Cc1cc(C2=NNC(=NCc3ccccc3)SC2)c(C)n1-c1c(C)n(C)n(-c2ccccc2)c1=O | -4% | 2%[46.1 µM] | 2% | 21% | -2% | -6.8% | 23% | -3%
CC(C)Cn1c(=O)c2ccccc2n2c(CCC(=O)Nc3cccc(Cl)c3)nnc12 | / | -4%[46.1 µM] | / | / | -2% | 0.2% | / | -9%
Cc1ccc(S(=O)(=O)N2CCN(Cc3cccc(C)c3O)CC2)cc1 | 11% | -2% | -19% | -4% | -24% | -6.5% | -8% | -16%
CCCCN1CC[C@@H]2C=CC[C@H](C(=O)OC)[C@@H]2C1=O | 19% | / | / | / | -1% | 0.0% | 7% | -14%
CC(C)OC(=O)NC(c1ccccc1)C(Cl)(Cl)Cl (stereo unspecified) | -19% | ? | 5% | -16% | -2% | -1.6% | 3% | 0%
CCc1ccccc1NC(=S)NC1CC2CCCC(C1)N2Cc1cccs1 (stereo unspecified) | 4% | ? | -9% | -2% | 5% | -3.4% | -15% | /
Cc1cc(=O)[nH]c(SCC(=O)N2CCCC2)n1 | -8% | -11% | 18% | / | / | / | 9% | -14%
